# Screening data deposited in PubChem by several laboratories.
# Vif A3G – inhibitors of Vif binding to APOBEC3G peptide, primary screen, biochemical, TR-FRET, GST-Vif 1-94, biotin-A3G peptide, dose response retest (AID 1117319); TR-FRET GST-Vif / biotin-A3G peptide binding; higher % means a stronger effect; test concentration not given here; strong numbers were not always called active; inhibition, %; hits with a dose series show IC50 in µM; actives 0.57% (n = 260,000);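 active means above the screen mean plus three standard deviations and confirmed in dose response; inconclusive means results disagree or hit not tested in dose response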;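 further: Vif residues 1-94 fused to GST binding biotinylated APOBEC3G peptide 110-148; 0% = full assay without inhibitor and 100% = GST in place of GST-Vif; retest series ran down from 100 µM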
# Calb FLC – C. albicans growth modulation with fluconazole. C. albicans CaCi-2 (fluconazole-resistant clinical isolate) + fluconazole, Alamar Blue growth, 48 h. growth inhibition, % (concentration not given with the values). actives 0.57% (n = 300,000);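 active means most replicates above 75%; inconclusive means exactly half above 75%; inactive means most below 75%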;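 further: all wells also contain fluconazole at 8 µg/ml as a sub-toxic cotreatment; 0% = median of DMSO wells and 100% = median of geldanamycin control wells; wells of about 8 µL received 7.5 nL stock; the first replicate is given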
# HNF4A DNA FP – change in binding of human HNF4 alpha to DNA | P41235 | HNF4a-FITC DNA binding, fluorescence polarization, 1 h | activity change, % at 10 µM | actives 0.3% (n = 360,000); in the data active means activity change above about 30%, passing the limit was not always enough;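 further: controls were the assay level and a saturating level of protein; the project sought stronger binding though the title names inhibitors; some compounds called inactive have numbers as strong as hits; positive values seem to mean higher polarization but the record does not say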
# ALR H2O2 inh – human ALR oxidase inhibition via reduced H2O2 | AID 485317 | actives 3.8% (n = 290,000) | inhibition, % (test concentration not listed) | P55789 | purified ALR, DTT oxidation, H2O2 HRP-luminol luminescence;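 active means mean and each replicate at 75% or more; inconclusive means only one of the two met; inactive means neither met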;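 further: stock transfer was 7.5 nL into about 7.5 µL; 0% = neutral wells and 100% = wells with inactivated enzyme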
# LANA-H2A inh – blocks KSHV LANA binding to histone H2A/H2B. cell-free LANA-H2A/H2B peptide, fluorescence polarization. inhibition, % (no concentration beside the values). actives 0.6% (n = 320,000). AID 2629; in the data active means inhibition mostly above about 10%, no sharp cut-off; inactive means mostly below about 6.7%;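 further: stock transfer was 7.5 nL into about 10 µL; 0% = median of vehicle wells and 100% = median of positive control wells; one replicate is shown; the record names a cut of 25% in any replicate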
# Target sequence (Q9QR71 whole entry, looked up): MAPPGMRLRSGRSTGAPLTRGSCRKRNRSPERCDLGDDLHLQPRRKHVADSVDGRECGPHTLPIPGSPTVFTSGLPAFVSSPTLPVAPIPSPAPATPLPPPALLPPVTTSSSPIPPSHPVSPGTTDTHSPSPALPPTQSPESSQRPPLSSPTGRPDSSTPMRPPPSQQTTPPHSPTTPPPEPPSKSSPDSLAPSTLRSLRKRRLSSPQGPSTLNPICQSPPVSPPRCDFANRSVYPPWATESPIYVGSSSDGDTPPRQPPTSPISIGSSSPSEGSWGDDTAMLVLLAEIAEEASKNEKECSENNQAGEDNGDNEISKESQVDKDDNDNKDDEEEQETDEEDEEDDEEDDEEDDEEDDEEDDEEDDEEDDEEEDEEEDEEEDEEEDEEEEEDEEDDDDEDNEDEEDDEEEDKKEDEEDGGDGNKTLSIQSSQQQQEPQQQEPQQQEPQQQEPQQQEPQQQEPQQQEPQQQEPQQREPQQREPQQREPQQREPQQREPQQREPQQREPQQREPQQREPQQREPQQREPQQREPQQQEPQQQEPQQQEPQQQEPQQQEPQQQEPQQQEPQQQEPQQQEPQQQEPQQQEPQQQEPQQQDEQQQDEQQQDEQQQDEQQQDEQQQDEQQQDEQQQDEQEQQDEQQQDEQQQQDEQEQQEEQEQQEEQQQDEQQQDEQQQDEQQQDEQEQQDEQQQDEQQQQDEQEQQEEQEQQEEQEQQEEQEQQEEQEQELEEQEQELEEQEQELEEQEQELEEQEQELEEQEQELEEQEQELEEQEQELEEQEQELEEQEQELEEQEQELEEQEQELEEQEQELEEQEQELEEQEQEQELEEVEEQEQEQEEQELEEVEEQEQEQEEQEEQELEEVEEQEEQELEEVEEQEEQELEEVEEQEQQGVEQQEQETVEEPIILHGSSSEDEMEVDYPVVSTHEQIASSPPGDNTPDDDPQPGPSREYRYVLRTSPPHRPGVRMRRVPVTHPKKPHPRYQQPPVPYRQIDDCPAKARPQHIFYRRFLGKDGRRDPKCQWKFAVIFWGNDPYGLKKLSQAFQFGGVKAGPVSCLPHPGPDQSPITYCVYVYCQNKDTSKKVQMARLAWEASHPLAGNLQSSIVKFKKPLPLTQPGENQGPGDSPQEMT
# RanGTP-Imp inh – inhibitors of RanGTP-importin-beta interaction, primary screen, biochemical, FRET, CFP-Ran, YFP-importin-beta, homogeneous; AID 2216; actives 1.1% (n = 300,000); inhibition, % (no concentration beside the values); cell-free CFP-Ran/YFP-importin-beta FRET ratio;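 active means most replicates above 15%; inconclusive means exactly half above 15%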;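 further: 0% = DMSO wells and 100% = Ran loaded with GDP instead of GTP; wells of about 40 µL received 100 nL stock; the first replicate is given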
# Beta2AR agonist – human beta-2 adrenergic receptor agonism by FAP; Am2.2-beta2AR cells, FAP receptor internalization, flow cytometry; reference of the scale not given here; response, % (concentration not given with the values); actives 0.43% (n = 340,000);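 active means response above a set limit, near 3 SD of response in nonfluorescent compounds, cut at about 42% in these data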;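 further: stock transfer was 100 nL into about 11 µL; a reference agonist was the positive control; negative values mostly stem from fluorescent compounds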
# The depositor's hits bear a star; ? = inconclusive; . = no result given; & = joins results of further samples.
SMILES,Vif A3G,Calb FLC,HNF4A DNA FP,ALR H2O2 inh,LANA-H2A inh,RanGTP-Imp inh,Beta2AR agonist
CSc1ncccc1C(=O)Nc1ccc(OC(F)(F)F)cc1,.,-5.6,-10.1,-20.6,-0.7,-3.3,-0.9
O=C(c1ccc2c(c1)OCO2)N1CCN(C(=O)c2ccco2)CC1,?,-11.9,-1.3,-8.6,-0.6,?,3.3
CCOC(=O)C1CCCN(CC(=O)Nc2c(C(=O)OC)[nH]c3ccccc23)C1 (stereo not given),-3.6%,-15.9,1.7,.,-0.8,-1.3,4.8
O=C(O)CC1S/C(=N/N=C/c2ccc(Br)cc2)N(c2ccccc2)C1=O (stereo not given),11.3%,10.6,0.9,.,.,6.6,2.3
Cc1ccc2nc(NC(=O)C3CSC4(C)CCC(=O)N34)sc2c1 (stereo not given),-3.6%,-6.2,-0.4,-0.6,-2.5,4.3,10.4
CC(=O)Nc1cccc(NS(=O)(=O)Cc2ccc(Cl)cc2)c1,0.0%,-19.1,-3.2,-4.7,-1.2,-1.9,-5.4
Fc1cccc(-c2ncc(-c3ccccc3)o2)c1,2.1%,.,-1.6,.,.,.,-7.2
Cc1cc(C(=O)OCC(=O)NCCc2ccc(S(N)(=O)=O)cc2)c2ccccc2n1,6.6%,.,-3.4,-0.2,-0.4,.,4.7
Cn1c(N)c(C(=O)COC(=O)C2CCN(S(=O)(=O)c3cccs3)CC2)c(=O)n(C)c1=O,.,32.5,1.3,.,-2.6,-1.7,10.3
CCC(Sc1nc(N)cc(N)n1)C(=O)O (stereo not given),15.8%,0.1,-0.5,.,-1.4,0.4,1.8
Cc1c(NC(=S)NC(=O)COc2ccccc2)c(=O)n(-c2ccccc2)n1C,4.0%,4.2,2.4,3.4,2.2,-1.7,3.0
C=CC[C@@H](CC(=O)N(CCO)Cc1ccccc1)C(=O)NCCOC(=O)[C@H](CC=C)CC(=O)OC(C)(C)C,.,.,4.2,-17.0,1.3,.,0.3

# By substructure: the compounds so far with four or more nitrogen atoms.
SMILES,Vif A3G,Calb FLC,HNF4A DNA FP,ALR H2O2 inh,LANA-H2A inh,RanGTP-Imp inh,Beta2AR agonist
Cn1c(N)c(C(=O)COC(=O)C2CCN(S(=O)(=O)c3cccs3)CC2)c(=O)n(C)c1=O,.,32.5,1.3,.,-2.6,-1.7,10.3
CCC(Sc1nc(N)cc(N)n1)C(=O)O (stereo not given),15.8%,0.1,-0.5,.,-1.4,0.4,1.8
Cc1c(NC(=S)NC(=O)COc2ccccc2)c(=O)n(-c2ccccc2)n1C,4.0%,4.2,2.4,3.4,2.2,-1.7,3.0

# The listing continues:
SMILES,Vif A3G,Calb FLC,HNF4A DNA FP,ALR H2O2 inh,LANA-H2A inh,RanGTP-Imp inh,Beta2AR agonist
O=C(NCc1ccccn1)C(=O)N/N=C/c1ccccc1O,3.3%,5.0,-0.4,-8.5,1.7,0.5,10.8
CCCCNC(=O)Cn1c(=O)oc2cc(S(=O)(=O)N3CC(C)CC(C)C3)ccc21 (stereo not given),-2.3%,-5.0,-2.1,0.4,-4.7,0.4,10.6
CCOc1ccc(NC(=O)CCNC(=O)Cn2cnc3ccccc3c2=O)cc1,.,-4.0,-1.4,0.3,-0.1,1.6,12.9
O=[N+]([O-])c1cccc(S(=O)(=O)NCCCn2ccnc2)c1,.,3.1,3.1,-13.0,1.2,-1.0,6.1
CCOC(=O)CN(Cc1sccc1C)C(=O)Nc1ccc(OCC)cc1,-10.6%,2.3,-0.6,-9.7,-0.9,1.7,-6.4
CC(C)(C)OC(=O)N1CCC(C(=O)Nc2cccc(C(=O)N3CCOCC3)c2)CC1,.,.,2.0,0.2,0.8,.,-4.5
CC(C)C1(C)C(=O)N=C2c3ccccc3C(=O)N21 (stereo not given),3.0%,11.0,-5.2,-2.0,2.5,-0.5,8.6
Cc1ccc(C(=O)N/N=C\c2c(C)nn(-c3ccccc3)c2Cl)cn1,.,34.8,-0.9,-7.2,-3.8,3.3,-7.7
CCN(CC)S(=O)(=O)c1cccc(C(=O)Oc2cccnc2)c1,?,-9.1,5.3,74.0,0.8,-1.2,12.8
Cc1c(NC(=O)C2CC=CCC2C(=O)O)c(=O)n(-c2ccccc2)n1C (stereo not given),25.7%,-0.5,-4.7,23.4,4.9,1.5,1.6
O=C(Cn1nc(C(F)(F)F)c2c1CCCC2)NCCN1CCOCC1,1.2%,-0.1,-2.0,1.6,-0.1,-0.6,7.0
CC(=O)CCc1oc2c([N+](=O)[O-])cccc2c1-c1ccc(C)o1,.,-40.5,0.8,21.2,5.4,-1.9,8.3
CC1=CC(c2ccccc2)n2nc(N3C(=O)CCC3=O)nc2N1 (stereo not given),2.5%,-0.5,-2.6,10.9,3.6,3.5,7.7
CCC(Sc1nc2c(cnn2-c2ccccc2)c(=O)[nH]1)C(=O)OC (stereo not given),0.6%,-0.4,2.6,.,-3.7,-5.8,6.7
Nc1nc(SCc2ccccc2)c2ncn(CCO)c2n1,5.3%,.,0.0,.,.,.,6.5
Cn1c(=O)oc2cc(S(=O)(=O)NC3CCCCC3)ccc21,.,-12.3,-2.2,-16.1,0.5,4.6,-8.2
Cc1ccc(S(=O)(=O)NN2C(=O)c3ccccc3NC2c2ccccc2F)cc1 (stereo not given),.,24.2,0.3,-1.7,4.6,-0.5,-0.3
COc1ccccc1N(CC(=O)N(CC(C)C)CC(C)C)S(=O)(=O)c1cccs1,2.4%,7.7,-1.1,.,0.7,-1.4,-4.2
CCOCCCNC(=O)c1c[nH]c2c(CC)cccc2c1=O,.,-5.0,2.8,-1.2,-1.8,-2.2,-3.4
Cc1nnc(SCC(=O)c2ccc(S(=O)(=O)N3CCOCC3)cc2)n1-c1ccccc1,7.2%,-1.1,1.4,93.7*,-0.9,-0.4,10.3
CC(=O)Nc1cccc(C(=O)OCC(=O)N2CCC(c3ccccc3)=N2)c1,-1.4%,5.3,0.0,8.9,1.0,6.9,0.0
Nc1cccc(NP(=O)(c2ccccc2)c2ccccc2)c1,7.9%,1.0,-6.5,-1.8,6.0,7.8,2.3
COc1ccccc1C(=O)COC(=O)c1cccc(S(=O)(=O)N2CCCC2)c1,.,5.5,0.8,1.5,4.6,2.6,12.8
COc1ccc(Cn2c(=O)[nH]c3cc(C(=O)NCCCN4CCCC4=O)ccc3c2=O)cc1,5.1%&17.8%,-4.4,0.6,.,1.6,1.7,-0.7
CCCCCCC1CC(=O)NC(=O)N1 (stereo not given),?,1.7,4.2,.,-2.1,3.8,-5.8
O=C(Nc1sc2c(c1C(=O)O)CCCCC2)c1ccccc1,2.9%,44.6,0.0,8.3,-0.2,-3.3,17.0
Cc1ccc(Cn2cc(C(=O)NN)c(=O)c3ccc(F)cc32)cc1,6.5%,-3.0,2.6,4.9,-2.6,5.3,12.1
OCCNc1nc(C2CC2)nc2c1nnn2Cc1ccccc1Cl,-3.0%,0.6,3.2,-2.2,7.4,0.9,-4.2
Cc1ccc(/C=C/C(=O)NCc2ccncc2)cc1,.,-16.1,-1.9,-3.6,3.0,1.8,4.9
Cc1ccc(CNc2ccc3c(c2)ncn3C)cc1,1.2%,13.2,6.0,66.8,-7.3,15.8*,-5.6
CN(C)S(=O)(=O)c1ccc(N2CCCC2)c(C(=O)Nc2ccccc2)c1,6.0%,2.0,2.2,1.2,-5.9,-0.9,0.5
CCOc1ccc(N(CC(=O)Nc2cccc(C)c2)S(C)(=O)=O)cc1,-3.2%,12.0,1.9,-7.7,9.1,4.5,3.5
COC(=O)c1ccc(CSc2nc3ccccc3c(=O)n2-c2ccc(OC)c(OC)c2)o1,>100µM*,-7.8,2.7,16.5,-2.3,-3.0,13.1
O=C(CN1CCN(C/C=C/c2ccccc2)CC1)Nc1ccccc1C(=O)NC1CC1,-0.6%,-2.3,0.8,-1.5,2.0,?,-2.3
NCC1CC2c3ccccc3C1c1ccccc12 (stereo not given),-2.4%,-11.1,-0.5,-2.2,-1.0,-1.8,-0.1
CN(C)c1ccc(C(=O)OCc2cc(=O)n3ccsc3n2)cc1,-8.8%,.,-1.4,.,.,.,-9.3
CC(=O)NCCNC(=O)C1CCCCN1S(=O)(=O)c1ccccc1 (stereo not given),.,-4.3,-3.9,-2.0,-4.2,2.4,-0.5
O=C(COc1ccc(Cl)cc1Cl)Nc1c(-c2cccs2)nc2ccccn12,.,11.6,0.2,46.3,2.0,2.3,6.8
COC(=O)/C(=C/c1ccc(F)cc1)NC(C)=O,-0.5%,-6.7,1.1,-7.2,-1.7,-0.5,0.9
COCc1nnc(NC(=O)c2cc3ccccc3o2)s1,5.2%,-1.6,1.9,-3.1,-4.7,3.0,-2.5
C=CCN(C(=O)c1csnn1)C(C(=O)NCc1ccccc1)c1cccs1 (stereo not given),3.0%,-18.6,5.4,-3.0,-0.2,-1.0,-4.7
O=c1oc2ccccc2nc1/C=C(O)/C=C/c1ccc(F)cc1,9.6%,4.4,3.0,23.0,0.7,0.0,3.5
COc1ccc(Cl)cc1NC(=O)c1cc(-c2ccco2)on1,.,0.7,18.6,-10.8,0.5,3.7,5.2
CCCOC(=O)Cn1c(=O)c2cc3c(=O)n(CC(=O)OCCC)c(=O)c3cc2c1=O,18.1%,-6.6,-0.1,.,.,7.1,-8.6
CNC(=O)COc1ccc(S(=O)(=O)N2CCCC2)cc1,.,4.6,2.3,-9.3,-1.1,0.8,3.0
CC(=O)Nc1ccc(NC(=O)CCNC(=O)c2ccccc2Cl)cc1,-6.0%,.,0.4,14.4,0.1,?,2.9
CCc1c(C)[nH]c2ccccc2c1=O,22.4%,.,-0.5,-2.4,-0.1,.,1.2
Cc1ccc(S(=O)(=O)NC[C@H]2O[C@@H](n3cnc4c(N)ncnc43)[C@H](O)[C@@H]2O)s1,-0.8%,.,0.8,1.8,-71.8,.,-2.7
Cc1c(Cl)ccc2c(C(=O)O)cc(-c3ccccc3)nc12,.,23.7,-2.0,6.2,-5.0,2.8,9.7
CCOC(=O)C(NC(=O)c1cccc(Cl)c1)(OCc1ccc(F)cc1)C(F)(F)F (stereo not given),?,-1.7,-2.8,-51.6,3.7,-1.2,7.0
Cn1cnnc1SCC(=O)Nc1ncc([N+](=O)[O-])s1,36.1µM*,.,-30.5,53.5,-0.5,.,3.1
Cc1cccc(C)c1NC(=O)CS(=O)CC(=O)Nc1ccc(N2CCOCC2)cc1 (stereo not given),.,-2.9,1.4,15.8,0.4,0.1,19.7
O=C(COC(=O)c1ccncc1)Nc1cc(Cl)c(Cl)cc1Cl,12.6%,.,.,-12.4,-9.5,.,.
COc1cc(OC)cc(-c2cc(NC(C)=O)n[nH]2)c1,2.6%,8.6,1.7,-0.2,-1.9,0.5,9.8
O=C(NCC(c1ccco1)N1CCCC1)c1ccc(-n2cccn2)cc1 (stereo not given),-0.3%,.,2.1,-2.5,6.2,.,-0.9
Cc1ccc(C)c(S(=O)(=O)N2CC(=O)N(CCc3ccccc3)C(=O)C2)c1,-1.0%,24.3,-0.9,5.8,0.9,-9.5,-4.5
O=C(CCc1nc(-c2ccccc2)no1)NCc1cccnc1,2.6%,-22.7,-1.0,-0.4,-0.8,-0.9,1.1
COC(=O)c1ccccc1NC(=O)c1cccc(NC(=O)c2ccc(Br)o2)c1C,22.7%,-1.1,-1.8,-0.7,-5.5,-1.5,6.3
Cc1ccc(Cn2cc(CCC(=O)O)c3ccccc32)cc1,-12.6%,-3.8,0.9,25.9,-2.9,0.0,3.2
CC1=NN(c2ccc(C(=O)O)c(N)c2)C(=O)C1,?,-6.3,-5.0,-20.3,-3.2,-5.8,0.6
CCOC(=O)Cc1csc(N/N=C/c2cccc([N+](=O)[O-])c2)n1,.,-1.0,-1.0,-2.5,0.7,3.9,15.1
O=C(O)C1CCCN(S(=O)(=O)Cc2ccccc2)C1 (stereo not given),-6.2%,0.0,5.3,6.8,2.1,-1.5,-8.9
